S aureus helic – inhibitors of S. aureus replicative helicase, primary screen, biochemical, fluorescence unwinding readout. inhibition, %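 (tested at about 80 µM)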. 120,000 compounds, 0.05% hits. purified S. aureus helicase, fluorescence unwinding assay; about half of the hits fall short of the stated cut;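 active = both duplicates at 50% or more, or one of them with a favoured structure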;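 also: 0% = mean of negative control wells and 100% = mean of positive control wells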
MgrA-DNA mod – S. aureus MgrA activity modulators, primary screen, biochemical, S. aureus Newman, fluorescence polarization | MgrA-DNA binding | inhibition, %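 (about 10 µg/mL by stock and volumes)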 | 84,000 compounds, 0.13% hits;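 active = above 50% in either of two replicates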;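 also: 0% = protein plus DNA without compound and 100% = DNA alone without protein; higher means less MgrA bound to DNA so lower polarization; one replicate is shown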
An asterisk follows results filed as active; nt = no result given; & = joins results of further samples. A portion of the library (hit frequency here may not be typical).

SMILES	S aureus helic	MgrA-DNA mod
CC1=C(C(N)=O)C(c2ccco2)C(C#N)=C(SCC(N)=O)N1 (configuration not stated)	10	-0.3
CN1CCN(C(=O)c2ccc(C(=O)N3CCN(C)CC3)cc2)CC1	nt	4.0
CC(C)(C)OC(=O)Nc1cccc(C(=O)O)c1	5	nt
CC(=O)c1ccc(Oc2ccc([N+](=O)[O-])cc2)cc1	nt	2.9
COc1cc2c(cc1OC)CN(C(=O)CCNC(=O)c1ccccc1Cl)CC2	9	nt
CCCC(=O)NCc1nc2ccccc2[nH]1	-23	nt
C/C(=N\NC(=O)CCc1ccc(S(=O)(=O)N2CCOCC2)cc1)c1ccc2c(c1)OCCO2	-10	nt
Cc1ccc(-c2nc(C(F)(F)F)cc(=O)[nH]2)cc1	nt	-2.5
Cc1nc2cc(N)ccc2n1-c1ccccc1	-27	3.2
COc1ccc2c(c1)c(CC(=O)NCc1ccco1)c(C)n2C(=O)c1ccc(Cl)cc1	1	1.0
CCCNS(=O)(=O)c1ccc2c(c1)oc(=O)n2CC(=O)OCC	7	-1.3
c1cnc2c(CN3CCOCC3)cccc2c1	-9	-1.9
COC(=O)c1cc(=O)n(C)[nH]1	nt	-2.4
O=C1Cc2cc(S(=O)(=O)NC3CCCCC3)ccc2N1	-29	nt
CN(Cc1ccccc1)C(=O)Cn1ncc2c([nH]c3ccccc32)c1=O	-29	nt
CCCNC(=O)c1nnc(Cc2ccc3c(c2)OCO3)o1	-7	1.5
C=CCSc1n[nH]c(C(C)(C)C)n1	nt	-0.1
CSc1cccc(NCN2C(=O)CCC2=O)c1	nt	0.2
Cn1c(=O)cc(SCC(=O)NCCCN2CCN(c3ccccc3F)CC2)c2ccccc21	12	0.2
O=C(Nc1ccc(Cl)c(C(F)(F)F)c1)c1nccnc1CO	3	nt
O=C(Nc1ncn[nH]1)C1CCN(S(=O)(=O)c2ccc(Cl)cc2)CC1	2	-3.6
CC1CCCC(NS(=O)(=O)CC23CCC(CC2=O)C3(C)C)C1C (configuration not stated)	-8	nt
Cc1cc(C(=O)Nc2cccc3c2CCCC3)n[nH]1	-26	nt
O=C(NCc1ccccc1)c1cc2c(ccc3ccccc32)oc1=O	-8	nt
O=c1[nH]c2ccccc2c(=O)n1CCNCc1ccccc1	nt	-0.1
O=C(Nc1nc2ccccc2s1)c1cc(=O)c2ccccc2o1	1	nt
Cc1cc(=O)[nH]c(SCC(=O)NC2CCCCC2)n1	14	0.7
CCOC(=O)C1CCN(C(=O)c2sc3nc(-c4ccccc4)cn3c2C)CC1	-18	nt
CN(CCC#N)S(=O)(=O)c1cc(Br)ccc1Br	-14	nt
CSc1nnc(-c2cnccc2C(F)(F)F)n1-c1ccc(Cl)cc1	nt	-2.2
Cc1[nH]n(-c2ccc(Cl)cc2)c(=O)c1C(=O)c1ccccc1	17	-0.4
COc1ccc(NC(=O)C(NC(=O)c2ccccc2)C(C)C)cn1 (configuration not stated)	-3	nt
COc1ccc(-c2noc(N(CCC#N)c3ccccc3)n2)cc1	3	9.8
Clc1ccccc1Cn1nnc2c(N3CCCCC3)ncnc21	nt	1.2
O=C(NC1CCCCCC1)C1C2C=CC3(CN(Cc4cccnc4)C(=O)C13)O2 (configuration not stated)	7	-0.1
NC1=Nc2cc(=O)[nH]c3nnc(n23)SC1	16	-0.4
O=C(NCCCN1CCOCC1)c1cc2ccccc2oc1=O	17	-1.1
COc1cc2c(cc1OC)C(c1ccccc1)N(C(=O)c1ccco1)CC2 (configuration not stated)	-12	2.5
CSc1ncc(C(=O)OCC(=O)N2CC(C)OC(C)C2)n1-c1ccccc1 (configuration not stated)	-10	nt
CCOC(=O)N1CCC2(CC1)NCCc1c2[nH]c2ccccc12	nt	-1.4

Reformatted field by field: entries from further up
CCCNC(=O)c1nnc(Cc2ccc3c(c2)OCO3)o1
  S aureus helic: -7
  MgrA-DNA mod: 1.5
COc1ccc2c(c1)c(CC(=O)NCc1ccco1)c(C)n2C(=O)c1ccc(Cl)cc1
  S aureus helic: 1
  MgrA-DNA mod: 1.0

The listing continues:
SMILES	S aureus helic	MgrA-DNA mod
C=CCn1c(=S)[nH]c2cc(C(=O)N3CCN(c4ccccc4OC)CC3)ccc2c1=O	-13	nt
CCc1nc2ccccc2n1CC(O)COc1cc(OC)cc(OC)c1 (configuration not stated)	4	nt
O=C(OCC1c2ccccc2-c2ccccc21)ON1C(=O)CCC1=O	nt	68*
CC(C)c1ccc(OCC(=O)c2ccc(O)cc2O)cc1	-1	1.2
C#CCn1c(O)c(N=NC(=O)Cn2nnc(-c3ccccc3)n2)c2cc(Br)ccc21	13	6.6
Cc1ccc(S(=O)(=O)CCS(=O)(=O)c2cccs2)cc1	nt	-1.2
CCOC(=O)c1sc(NC(=O)c2cc(C(C)C)on2)c(C(=O)OCC)c1C	-19	nt
COc1ccc(Cl)cc1Nc1nc(N)nc(CC(=O)CSc2nc3ccccc3s2)n1	8	-0.6
CSC(=S)Nc1ccc(C)cc1	2	1.4
O=C(NCc1ccccc1)c1cccnc1NC1CCCCC1	15	2.2
N#Cc1ccc(CC(C#N)(Cc2ccc(C#N)cc2)c2nnc3n2CCCCC3)cc1	-6	nt
CCOC(=O)c1c(C)oc2ccc(OC(=O)Nc3ccc(Cl)cc3)cc12	4	nt
O=S(=O)(Cc1ccc(F)cc1)Cc1noc(C2CCC2)n1	nt	-0.7
O=C(CSc1nnnn1-c1ccccc1)n1c2ccccc2c2ccccc21	16	7.8
COc1ccc2c(c1)CCc1cn[nH]c1-2	nt	1.8
O=C(O)C1C2C=CC(O2)C1C(=O)Nc1nc(-c2ccccc2)cs1 (configuration not stated)	11	0.5
Cc1ccc(SC(=O)c2c(C)noc2-c2cc(C)on2)cc1	nt	2.2
CCn1c(Cc2ccccc2)nc2ccccc21	-20	nt
O=C(Oc1ccccc1OC(=O)c1ccccc1)c1ccccc1	11	-0.5
O=C(OCC(=O)N1CCCCC1)c1cnc(Cl)c(Cl)c1	21	0.5

Next section; it opens with the 6 that closed the last part.
SMILES	S aureus helic	MgrA-DNA mod
COc1ccc2c(c1)CCc1cn[nH]c1-2	nt	1.8
O=C(O)C1C2C=CC(O2)C1C(=O)Nc1nc(-c2ccccc2)cs1 (configuration not stated)	11	0.5
Cc1ccc(SC(=O)c2c(C)noc2-c2cc(C)on2)cc1	nt	2.2
CCn1c(Cc2ccccc2)nc2ccccc21	-20	nt
O=C(Oc1ccccc1OC(=O)c1ccccc1)c1ccccc1	11	-0.5
O=C(OCC(=O)N1CCCCC1)c1cnc(Cl)c(Cl)c1	21	0.5
CCN(CC)C(=O)c1sc(NC(=S)N2CCN(Cc3cnn(CC)c3C)CC2)c(C(=O)OC)c1C	7	-1.8
Cc1ccc(C)c(NC(=O)CN(C)c2ncccn2)c1	-4	nt
Cc1ccc(NC(=O)C2Cc3ccccc3O/C2=N\O)cc1C (configuration not stated)	13	nt
COC(=O)C(=C/C(C)=C/c1ccco1)C(=O)OC	22	-1.4
COc1ccc(/C=[N+](/C)[O-])cc1	nt	1.8
CCOC(=O)c1c(N=Cc2ccc(OC)c(OC)c2Cl)n[nH]c1C	nt	0.3
S=c1ccc2ccccc2[nH]1	-1	nt
COc1ccc(-c2nc(CS(=O)CC(=O)NC3CCCc4ccccc43)c(C)o2)cc1OC (configuration not stated)	12	nt
Cc1ccc(S(=O)(=O)N2CCN(c3ncnc4sccc34)CC2)cc1C	-5	nt
O=C(OCc1cccc2ccccc12)C1CCN(c2nc3ccccc3o2)CC1	-9	nt
Cn1c(SCc2ccc(F)cc2)nc2ccc(C(=O)N3CCc4ccccc43)cc21	0	0.2
O=C(c1ccccc1)N1CCN=C1SCc1ccccc1	19	0.4
O=C(CCCc1c[nH]c2ccccc12)Nc1nnc(-c2ccc(Cl)cc2)o1	-5	nt
O=c1ccc2cc(S(=O)(=O)NCc3ccccc3)ccc2o1	32	nt
Cc1ccc(S(=O)(=O)/C(C#N)=C/C2=Cc3ccccc3OC2)cc1	-36	62*
COc1ccccc1NC(=O)CN1CCN(C/C=C/c2ccccc2)CC1	-17	-0.4
CCC(NS(=O)(=O)c1ccc(C)cc1)C(=O)N1CCCCC1 (configuration not stated)	10	nt
CC(=O)Oc1ccc2occ(C(=O)c3ccc(F)cc3)c2c1	14	-0.2
CC[N+](C)(C)c1cccc(O)c1	nt	6.9&1.1
Cc1ccc(S(=O)(=O)CC(N)=O)cc1	12	1.6
Cn1c(N)c(C(=O)COC(=O)CC2CC3CCC2C3)c(=O)n(C)c1=O (configuration not stated)	0	nt
COc1cccc(C2NCCc3ccccc32)c1 (configuration not stated)	14	-4.5
Cc1ccccc1N=C1C(=O)N(CN2CCCCC2)c2ccc(Br)cc21	13	2.8
CCCn1c2ccc(F)cc2c2nnc(SCCN(CC)CC)nc21	30	nt
COc1ccc(C(=O)CNc2ccccc2CO)cc1	-19	0.0
CN(C)S(=O)(=O)N(CC(=O)N1CCCC1)c1ccccc1	-7	2.5
O=C(CN1CCOCC1)Nc1nc2ccc(Cl)cc2s1	0	-0.9
CC1(C)OC(=O)N(CC2CCCO2)C1(C)O (configuration not stated)	18	4.2
Cc1ccnn1C(C)C(=O)O (configuration not stated)	-1	-4.8
Cn1c(=O)c2cc(C(=O)Nc3cccc(C(F)(F)F)c3)sc2c2ccccc21	16	-0.2
CCOC(=O)NCc1ccccc1	nt	-0.3
C#Cc1ccc(C#C)cc1	3	0.9
Cc1nn(-c2ccc(Cl)cc2)c2sc(C(=O)OCC(N)=O)cc12	2	nt
C=CCC(Nc1cccc(C)c1)c1ccco1 (configuration not stated)	9	nt
COC(=O)Cc1[nH]n(-c2nc3ccccc3s2)c(=O)c1C=Nc1ccc(C)cc1	-8	-1.7
COCc1cnc(Nc2nc3ccccc3o2)nc1C(=O)OC	7	1.9
NC(=O)C1Cc2ccccc2CN1 (configuration not stated)	4	-1.9
CCc1ccc(NC(=O)CN2C(=O)CC(C)Sc3ccccc32)cc1 (configuration not stated)	14	-1.6
O=C(O)CCN1CCN(C2CCCCC2)CC1	10	-6.8
Cc1cccc(C)c1-n1ncc(C(=O)O)c1C1CCNCC1	-15	nt

Full records from above.
CCOC(=O)c1sc(NC(=O)c2cc(C(C)C)on2)c(C(=O)OCC)c1C is listed with S aureus helic: -19; MgrA-DNA mod: nt
COc1cccc(C2NCCc3ccccc32)c1 (configuration not stated) is listed with S aureus helic: 14; MgrA-DNA mod: -4.5

(next part)
SMILES	S aureus helic	MgrA-DNA mod
CC(CC(=O)NCC1(N(C)C)CCCCC1)c1ccccc1 (configuration not stated)	13	nt
CC(=O)Nc1ccc(S(=O)(=O)Nc2nc3ccccc3nc2Sc2nncn2C)cc1	-35	nt
Cc1nc(-c2ccc3ccccc3c2)cs1	-23	nt
O=C(CCc1ccccc1O)N1CCN(S(=O)(=O)/C=C/c2ccccc2)CC1	3	nt
Cc1cc(C(=O)NN=C2CCCC2)c(C)n1-c1ccccc1	-16	nt

Quoted from the listing:
Under S aureus helic, CC(=O)Nc1ccc(S(=O)(=O)Nc2nc3ccccc3nc2Sc2nncn2C)cc1 is listed with -35
Under S aureus helic, Cc1cc(C(=O)NN=C2CCCC2)c(C)n1-c1ccccc1 is listed with -16
Under S aureus helic, CC(CC(=O)NCC1(N(C)C)CCCCC1)c1ccccc1 (configuration not stated) is listed with 13
Under S aureus helic, Cc1nc(-c2ccc3ccccc3c2)cs1 is listed with -23
Under S aureus helic, O=C(CCc1ccccc1O)N1CCN(S(=O)(=O)/C=C/c2ccccc2)CC1 is listed with 3

Screening results deposited in PubChem BioAssay by ICCB-Longwood Screening Facility, Harvard Medical School.
